Source: PubChem (SRMLSC)
H5N1 CPE: antiviral screen in MDCK cells, H5N1 avian flu; cytopathic effect, luminescence, 72 h; hits give high values; no value below 0 was filed and about half of the inactive calls have no number; reference of the scale not given here; inhibition, % at 50 µM; 0.07% of 96,000 active; in the data active means inhibition above about 25%
* marks the source's active call; other numbers are inactive results; i = inactive. The list is partial; the hit share may differ from the screen's.

Molecule | H5N1 CPE
CCOCCCNC(=O)C(NC(=O)CC1NC(=O)NC1=O)c1ccc(Cl)cc1 (stereo unspecified) | i
CN(C)S(=O)(=O)c1ccc2c(c1)c(=O)c(C(=O)N1CCOCC1)cn2C | i
O=C(NNC(=O)c1cccnc1)Nc1ccccc1 | i
COC(=O)C1=C(C)NC2=C(C(=O)CCC2)C1c1cccs1 (stereo unspecified) | 0.3
Cc1cccc(NC(=O)CSc2nc(C)c(CC(=O)c3ccc(Br)cc3)c(C)c2C#N)c1C | i
Cc1ccc(-n2nc3c4c(cccc4c2=O)-c2ccccc2-3)cc1 | 0.3
CCCN=C1N/C(=C\c2ccco2)C(=O)N1c1ccccc1 | 1.8
CC(/C=N/n1c(-c2ccccc2)n[nH]c1=S)=C\c1ccco1 | 0.7
CCC(C)OC(=O)c1c(N)n(Cc2cccs2)c2nc3ccccc3nc12 (stereo unspecified) | i
COc1cccc(N2CCN(C3CC(=O)N(c4ccc(Cl)c(Cl)c4)C3=O)CC2)c1 (stereo unspecified) | 0.3

Rewritten field by field: part of the list above.
compound: Cc1cccc(NC(=O)CSc2nc(C)c(CC(=O)c3ccc(Br)cc3)c(C)c2C#N)c1C
  H5N1 CPE = i
compound: Cc1ccc(-n2nc3c4c(cccc4c2=O)-c2ccccc2-3)cc1
  H5N1 CPE = 0.3
compound: CCCN=C1N/C(=C\c2ccco2)C(=O)N1c1ccccc1
  H5N1 CPE = 1.8

Next section.
Molecule | H5N1 CPE
O=C(/C(=C/c1ccc(Cl)cc1)c1nc2ccccc2[nH]1)c1cccs1 | i
Cc1cccc(N2CCN(C(=O)CCNC(=O)Cn3ccc4ccccc4c3=O)CC2)c1C | i
COc1ccc(-c2ccc3c(N)c(C(=O)c4cccc(OC)c4)sc3n2)cc1 | 0.1
COc1ccc(C(=O)Nc2ccc3oc(-c4cccc(F)c4)nc3c2)cc1OC | i
CCOC(=O)C1CCCN(C(=O)c2cccs2)C1 (stereo unspecified) | i
Cc1ccc2c(C)nc(Nc3nc(CSc4nc5ccccc5[nH]4)cc(=O)[nH]3)nc2c1 | 1.7
CC(C)CCNc1nc(-c2ccco2)c2c(c1C#N)CCCC2 | 4.9
COc1ccccc1NC(=O)CSc1nnc(-c2ccncc2)o1 | i
CCCCCCOc1ccc(CN2CCN(CCO)CC2)cc1 | i
Cc1ccc(S(=O)(=O)N/N=C\c2ccccc2OCc2ccccc2)cc1 | 4.1
CN(C(=O)COC(=O)COc1ccc(Cl)cc1)C1CCCCC1 | i
CC(=O)Nc1ccc(-c2nnc(SCc3ccc(C)cc3)n2C)cc1 | 0.4
COc1ccc(-c2cc3nc(C)cc(NCCO)n3n2)cc1 | i
O=c1[nH]c2ccc(Cl)cc2c(=O)n1Cc1ccco1 | i
CCOc1cc(S(=O)(=O)N2CCN(CC)CC2)ccc1Cl | i
CCc1ccc(NC(=O)C2CCN(S(=O)(=O)c3c(C)[nH]c(=O)[nH]c3=O)CC2)cc1 | i
C=CCOn1c(=O)c(-c2ccc(OC)cc2)[n+]([O-])c2ccccc21 | i
CCNC(=O)NC(=O)CSc1nc2ccccc2n1CCOC | i
CCOC(=O)C1CCN(C(=O)C2CCN(S(=O)(=O)c3cccc4cccnc34)CC2)CC1 | 1.7
Cc1c(-n2c(SCC(=O)O)nnc2-c2ccccc2Cl)c(=O)n(-c2ccccc2)n1C | 0.1
CCOc1ccc(C2C(C#N)=C(N)Oc3n[nH]c(C)c32)cc1OC(=O)C1CC1 (stereo unspecified) | i
O=C(NCc1ccc(OC(F)(F)F)cc1)C1CC(c2c(Cl)cccc2Cl)=NO1 (stereo unspecified) | 2.2
Cc1cc(C(=O)CSc2nnnn2C)c(C)n1CCc1ccc(F)cc1 | 0.4
CCOC(=O)C1=C(O)CCn2c1nc1ccccc12 | 3.1
COC(=O)c1ccc(/C=N/N2CCN(Cc3ccccc3)CC2)cc1 | i
CCOC(=O)C1CCN(C(=O)CCNC(=O)c2cc(OC)c(OC)c(OC)c2)CC1 | i
COc1cc(C2C(C#N)=C(N)Oc3cc(C)oc(=O)c32)ccc1OC(=O)N1CCOCC1 (stereo unspecified) | 0.9
Cc1nn(Cc2ccccc2)c(C)c1NC(=O)c1cc(-c2ccco2)on1 | i
O=C1CC(c2ccco2)Cc2nc(N3CCc4ccccc4C3)ncc21 (stereo unspecified) | i
O=C(NCC(=O)N(c1ccccc1)C(C(=O)NCC1CCCO1)c1ccccc1)c1ccco1 (stereo unspecified) | 0.8
CCn1c(SC(C)C(=O)O)nnc1-c1cccnc1 (stereo unspecified) | i
CC(=O)c1sc2nc(SCC(=O)N3CCCCC3)[nH]c(=O)c2c1C | 1.2
CS(=O)(=O)Nc1ccccc1C(=O)Nc1cc(Cl)cc(Cl)c1 | 2.1
Cc1cc(C)c(C)c(S(=O)(=O)N2CCC(C(=O)OCC(=O)N3c4ccccc4NC(=O)C3(C)C)CC2)c1C | i
CCN(CC)c1ccc(NC(=O)C2CC3CCC2C3)cc1 (stereo unspecified) | 0.1
O=C(c1cnc2n(c1=O)CCS2)N(C1CCCCC1)C1CCCCC1 | 0.8
COC(=O)c1ccccc1NC(=O)C1CC=CCC1C(=O)O (stereo unspecified) | 0.1
CCN(CC)CCN1C(=O)c2ccccc2NC1c1ccc(F)cc1 (stereo unspecified) | i
Cn1c(C(=O)NCCc2c[nH]c3ccccc23)cc2sccc21 | i
CCNC(=O)c1oc2c(c1C)C(=O)CC(C)(C)C2 | i
COc1ccc(CC(=O)NCc2cccs2)cc1OC | 1.5
COc1cc(C)c(C(C)C)cc1S(=O)(=O)n1cnc(C)c1 | 0.1
CC12CN3CC(C)(CN(C1)C3c1ccncc1)C2=O (stereo unspecified) | i
CCOC(=O)C1=C(C)N(C)C(=O)NC1c1cccc(O)c1 (stereo unspecified) | 0.5
CCOc1ccc(N(CC(=O)NC2CCCC2)C(=O)CSc2nnc(COc3ccccc3)o2)cc1 | i
CC(C)C(NC(=O)c1ccccc1)C(=O)NC1=NCCS1 (stereo unspecified) | i
Cc1[nH]n(-c2ccccc2)c(=O)c1/C=N/n1c(C)nc2ccccc2c1=O | i
CC(C)CCNC(=O)NC(=O)Cn1cc(C(F)(F)F)ccc1=O | 0.1
Cc1ccc(CSc2nnc(Cn3c(=O)sc4ccccc43)n2C)cc1 | 1.6
C[C@H](NC(=O)Cn1cncn1)c1ccccc1 | 1.0

Remaining list, next part.
Molecule | H5N1 CPE
CN(C(=O)c1cccnc1)c1nc(-c2ccccc2)cs1 | 0.8
CCOC(=O)c1c(C)nc2sc3c(c2c1-c1ccc(OC)cc1)NC(c1ccc(OC)cc1)NC3=O (stereo unspecified) | 1.0
COCCNc1nc2c(c(=O)n(C)c(=O)n2C)n1Cc1cccc(C)c1 | 1.3
CCOC(=O)C1CCN(c2ncnc3c2oc2ccc(Br)cc23)CC1 | 0.5
CCn1c2c(c3cc(C(=O)O)ccc31)CCCC2=O | 0.5
Cc1ccc(-c2nnn(CC(=O)N(Cc3ccccc3)C(C(=O)NC(C)(C)C)c3ccncc3)n2)o1 (stereo unspecified) | i
Cc1ccc(C(=O)O/N=C/c2c(N3CCOCC3)n(C)c3ccccc23)cc1 | 2.1
Cn1c(Cn2c(=O)sc3ccccc32)nnc1SCC(=O)N1CCCCCC1 | 1.0
Cc1ccc2c(c1)NC(=O)c1cccnc1N2 | i
O=C(NCC(=O)N(c1cccc(F)c1)C(C(=O)NCC1CCCO1)c1ccccc1)c1ccco1 (stereo unspecified) | 1.2
Cc1csc(SCc2ccccc2C(=O)O)n1 | i
Clc1ccc(CSc2nnc(-c3cccnc3)n2Cc2ccco2)c(Cl)c1 | i
CC(C)NS(=O)(=O)c1ccc(OCC(=O)N(C)Cc2ccccc2)cc1 | i
O=C(NC(=S)Nc1ccc(Cl)cn1)c1cccs1 | i
O=C1c2ccccc2C(=O)c2c1oc(C(F)(F)F)c2C(=O)c1ccccc1 | i
Cn1c(SCc2c(Cl)cccc2Cl)nc(C(F)(F)F)cc1=O | i
CCCCOC(=O)CCc1nc2ccccc2[nH]c1=O | 0.2
CCOC(=O)c1[nH]c2ccc(OC)cc2c1NC(=O)CCN1CCCC(C)C1 (stereo unspecified) | i
N=c1c2c(-c3ccccc3)c(-c3ccccc3)oc2ncn1Cc1ccco1 | i
CCOc1ccccc1OCCCC(=O)N1CCN(S(=O)(=O)c2cccc(F)c2)CC1 | i
N#Cc1c(N2CCN(C(=O)c3ccccc3)CC2)nc(-c2ccccc2)c2c1CCCC2 | 6.2
CC(C)Cc1cc(C(=O)Nc2ccc(F)cc2F)no1 | i
CSc1ccccc1C(=O)Nc1ncc(C)s1 | 0.3
O=C(Nc1ccc(NC(=O)c2sc3ccccc3c2Cl)cc1Cl)c1ccco1 | i
CCC(=O)c1ccc(OCc2ccc(C(=O)OC)o2)c(OC)c1 | 0.5
CCOc1ccc(C2=Nn3cnnc3SC2)cc1 | i
C=CCc1ccc(OCC(O)COCC)c(OC)c1 (stereo unspecified) | 0.9
CCN1CCN(C(=S)Nc2ccccc2Cl)CC1 | 1.1
O=C(CN(C(=O)CNC(=O)c1ccco1)c1ccc(Cl)c(Cl)c1)NC1CCCCC1 | i
Cn1nccc1C(=O)NC(=S)Nc1sc2c(c1C#N)CCCCC2 | i
Cn1c(NCCCO)nc2c(c1=O)C1(CCCCC1)Cc1ccccc1-2 | i
O=[N+]([O-])c1cccnc1N1CCOCC1 | 0.6
CCN1CCN(CC(=O)NC2CCCC2)C(=O)C1=O | 0.2
CCSc1nnc([C@H](Cc2c[nH]c3ccccc23)NC(=O)OC(C)(C)C)o1 | i
CCOC(=O)c1cccc(NC(=O)c2cc3sccc3n2C)c1 | i
O=C(NCC1CCCO1)c1onc(CSc2ccc(F)cc2)c1C(=O)O (stereo unspecified) | 0.5
COc1ccc(-c2noc(C3CCCN(S(=O)(=O)c4ccc(C)c(Cl)c4)C3)n2)cc1OC (stereo unspecified) | 0.2
Cc1occc1-c1nnc(SCC(=O)c2ccccc2)n1CC1CCCO1 (stereo unspecified) | 0.1
COc1cccc(/C=N\Nc2nncc(-c3ccccc3)n2)c1 | 1.1
CCOC(=O)/C=C1\SCC(=O)N1CC(=O)Nc1ccc(OC)c(OC)c1 | 0.7
O=C(CSc1nc2ccc(Cl)cc2[nH]1)NCc1ccco1 | 3.4
CCOC(=O)c1c(C)cc(C)n2c1nc1ccccc12 | 2.3
Cc1cc(C(=O)N2CCc3ccccc32)c2cc(F)ccc2n1 | i
O=C(CSc1nnnn1-c1ccccc1)Nc1ncc2c(n1)CC(c1ccccc1)CC2=O (stereo unspecified) | i
Cc1ccc(C(C)C)c(OCc2nnc(SCC(=O)Nc3nccs3)n2C)c1 | i
CCOC(=O)CCc1c(C)c2ccc(OCc3cc([N+](=O)[O-])ccc3OC)cc2oc1=O | 1.4
O=C(CN1CCC2(CC1)OCCO2)c1ccc2cc[nH]c2c1 | i
COc1cccc(NC(=O)C2c3cc(OC)c(OC)cc3C(=O)N(C)C2c2cccnc2)c1 (stereo unspecified) | i
CC(C)(C)NC(=O)c1nc2ccccc2s1 | i
CCN(C(=O)CSc1nc2ccccc2n1CCc1ccccc1)C1CCS(=O)(=O)C1 (stereo unspecified) | 1.9

More entries
Molecule | H5N1 CPE
CCOC(=O)c1ccccc1NC(=O)c1nc2nccc(C)n2n1 | i
Cc1nc(SCC(=O)N2c3ccccc3Sc3ccccc32)n[nH]1 | 0.2
CSCC[C@H](NC(=O)c1ccc(Cl)c(S(=O)(=O)N2CCCC2)c1)c1nc2ccccc2[nH]1 | i
Cc1ccc(C(=O)N(Cc2ccc3c(c2)OCO3)Cc2nc3ccccc3c(=O)[nH]2)cc1 | 0.5
C/C(=C/c1oc2ccc(O)cc2c1[N+](=O)[O-])N(C)C | 0.6
CCOc1ccc(OCc2ccc(C(=O)N3CCc4ccccc4C3)o2)cc1 | 0.8
Fc1ccc(CSc2ncnc3nc[nH]c23)cc1 | 2.1
CCOCCCNC(=O)c1ccccc1SC | i
CCOc1ccc(CCNC(=O)CN2CCN(Cc3ccccc3C)C2=O)cc1OCC | 0.7
CCOC(=O)C1=C(N)Oc2cc(C)oc(=O)c2C1c1cccnc1 (stereo unspecified) | 1.1

Another view of some results above.
SMILES: C/C(=C/c1oc2ccc(O)cc2c1[N+](=O)[O-])N(C)C
  H5N1 CPE: 0.6

SMILES: CCOc1ccc(OCc2ccc(C(=O)N3CCc4ccccc4C3)o2)cc1
  H5N1 CPE: 0.8

SMILES: Fc1ccc(CSc2ncnc3nc[nH]c23)cc1
  H5N1 CPE: 2.1

SMILES: CCOCCCNC(=O)c1ccccc1SC
  H5N1 CPE: i

(list continues)
Molecule | H5N1 CPE
CC(C)(C)NS(=O)(=O)c1cnc(Cl)c(Cl)c1 | 0.9
COc1cc(S(=O)(=O)N(Cc2ccc(C)cc2)C2CCCCC2)ccc1-n1cnnn1 | i
CCOC(=O)c1[nH]c(C)c(/C(O)=C2\C(=O)C(=O)N(CCN(C)C)C2c2ccc(C)o2)c1C (stereo unspecified) | i
CC(C)C[C@H](NC(=O)NCc1ccccc1Cl)C(=O)O | 2.6
CSCC[C@H](NC(=O)NCc1ccccc1F)C(=O)O | 0.1
CCCn1nc(NC(=O)C2CCCO2)c2cc3cc(C)ccc3nc21 (stereo unspecified) | i
Cc1nn2c(C)nc3sc4c(c3c2nc1=O)CC(C)(C)OC4 | 1.2
CC(=O)COC(=O)CCc1nc2ccccc2[nH]c1=O | i
O=C(Nc1ccc(F)cc1F)c1cc2n(n1)C(C(F)(F)F)C1CCCCC1N2 (stereo unspecified) | i
COc1ccc(CC(=O)Nc2ccc(-c3cn4ccccc4n3)cc2)cc1OC | i
COc1ccc(-c2cn[nH]c2N)c(OC)c1 | 0.9
COC(=O)CCCCCc1ccc(C(C)=O)s1 | i
Cc1sc(C(=O)NCc2cccnc2)c2nc(C)n(CC(=O)NCc3cccnc3)c(=O)c12 | 1.8
CCCCC(NC(C)=O)c1nc2ccccc2[nH]1 (stereo unspecified) | i
